Screening data as filed in PubChem BioAssay.
TRPML1 inh: inhibitors of human TRPML1 channel; TRPML1-inducible cells, Ca2+ dye fluorescence, FDSS; active compounds read low; inhibition of EC80 agonist-evoked calcium signal; 390,000 compounds, 0.02% hits; activity change, negative = inhibition, % (no concentration beside the values); Q9GZU1; in the data active means activity change below about -50%; inconclusive means about -30% to -50%; inactive means above about -30%;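 also: stimulus is agonist 54-4 at its EC80 concentration; % is scaled to controls: 0 for no effect and ±100 for the full control effect; compound concentration not given in the record; the text of the record puts the active cut at -80%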
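TRPML1-DL cells, Tet-induced overnight (~16 h, 37 °C) at 1,500 cells/well, were loaded with Ca8 no-wash dye plus quencher for 45-90 min at room temperature. Compounds were pinned during FDSS kinetic reading; agonist 54-4 at EC80 (4 uM final) then added.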
Six1-Eya2 blk: blocks human Six1 binding to Eya2 | AlphaScreen GST-Six1/His-Eya2 binding, biochemical; active compounds read low; control for the full effect not named in the record | Q15475+O00167 | activity change, % (concentration not given with the values) | 360,000 compounds, 0.56% hits; in the data active = activity change below about -65%; inconclusive = about -30% to -65%; inactive = above about -30%; also: % is scaled to controls: 0 for no effect and ±100 for the full control effect
Target sequence (O00167 whole entry, looked up): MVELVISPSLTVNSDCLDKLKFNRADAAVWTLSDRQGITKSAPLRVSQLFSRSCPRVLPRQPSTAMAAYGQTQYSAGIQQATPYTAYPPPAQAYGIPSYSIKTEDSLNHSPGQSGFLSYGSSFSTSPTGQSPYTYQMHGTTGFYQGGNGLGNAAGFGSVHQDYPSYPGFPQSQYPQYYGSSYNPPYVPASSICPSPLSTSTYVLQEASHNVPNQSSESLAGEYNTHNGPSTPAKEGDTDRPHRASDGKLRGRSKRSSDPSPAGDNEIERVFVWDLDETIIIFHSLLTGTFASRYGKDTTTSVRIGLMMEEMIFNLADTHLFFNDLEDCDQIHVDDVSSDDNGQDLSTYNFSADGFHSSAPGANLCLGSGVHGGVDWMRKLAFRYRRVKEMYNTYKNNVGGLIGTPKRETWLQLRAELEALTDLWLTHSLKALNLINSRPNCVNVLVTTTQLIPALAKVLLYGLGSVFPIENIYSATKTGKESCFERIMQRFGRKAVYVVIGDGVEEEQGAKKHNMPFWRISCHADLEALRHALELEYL
Target sequence (Q15475 whole entry, looked up): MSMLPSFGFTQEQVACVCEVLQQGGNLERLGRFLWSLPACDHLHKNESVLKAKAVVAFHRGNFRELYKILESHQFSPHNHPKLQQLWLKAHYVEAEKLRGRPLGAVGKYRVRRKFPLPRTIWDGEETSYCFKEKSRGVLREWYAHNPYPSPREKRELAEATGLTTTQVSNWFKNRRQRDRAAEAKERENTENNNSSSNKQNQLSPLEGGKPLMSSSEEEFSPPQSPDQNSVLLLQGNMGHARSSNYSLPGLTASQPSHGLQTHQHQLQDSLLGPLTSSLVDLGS
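GST-Six1 + His-Eya2 (5X stock: 250/500 nM); Tris pH 8.0, 300 mM NaCl, 0.05% BSA, 0.02% Tween 20; GSH donor/Ni acceptor beads; 1 h 37 °C dark; AlphaScreen readout.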
CtBP-E1A blk: inhibitors of CtBP/E1A interaction; AlphaScreen GST-E1A/His-CtBP binding, 1536-well; active compounds read low; control for the full effect not named in the record; activity change, % (test concentration not listed); 340,000 compounds, 0.49% hits; in the data active means activity change below about -65%; inconclusive means about -30% to -65%; inactive means above about -30%; also: % is scaled to controls: 0 for no effect and ±100 for the full control effect
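GST-E1A and His-tagged CtBP (125 nM each as 5X stock) were preincubated with pin-transferred compound for 2 h at 37 °C in the dark, then glutathione donor and nickel acceptor beads were added for 1 h before AlphaScreen reading.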
TRPML1 agonist: human mucolipin-1 channel agonism. 410,000 compounds, 0.12% hits. activation, % (test concentration not listed). TRPML1-expressing cells, Ca2+ dye fluorescence, FDSS; host cell line not named in the record; reference of the full effect not given here. Q9GZU1; in the data active = activation above about 50%; inconclusive = about 30% to 50%; inactive = below about 30%; also: 0% is about no effect; the text of the record puts the active cut at 80%
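Calcium fluorescence on an FDSS kinetic reader gave the read-out. Tet-induced TRPML1-DL cells were plated overnight, dye-loaded (Ca8 with quencher, 45-90 min, room temperature, dark), then read 110 s after compound addition, and again 110 s after 4uM final 54-4 (EC80).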
D2 PAM: potentiates the human D2 dopamine receptor allosterically | DiscoveRx D2 beta-arrestin cells, luminescence, 90 min; 100% = 57 uM dopamine signal | potentiation, % (no concentration beside the values) | 360,000 compounds, 0.23% hits | P14416; active = potentiation of 50% or more; inconclusive = 30% to 50%; inactive = 30% or less;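 also: compound concentration not given in the record; tested on top of an EC20 dose of dopamine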
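D2 cells co-treated with compound plus 50 nM dopamine (EC20) for 90 min at 37 deg C to detect potentiation. Beta-arrestin recruitment was read as enzyme-fragment luminescence after 1 h at ambient temperature. Full response was set by 57 uM dopamine.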
TRPV1 potentiator: human TRPV1 potentiation | Q8NER1 | potentiation, % at 8.33 µM | TRPV1-expressing cells, Fluo-8 calcium influx, capsaicin EC20 potentiation; host cell line not named in the record; control for the full effect not named in the record | AID 540277 | 320,000 compounds, 0.02% hits; active means potentiation above 80%; inconclusive means 30% to 80%; inactive means below 30%; also: 0% is about no effect
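Cells expressing TRPV1 were dye-loaded with Fluo-8 and read kinetically: 10 s baseline, 3 min after compound (agonist portion), then 2 min after EC20 capsaicin (allosteric enhancer portion). Calcium-bound dye fluorescence at 480/520 nm.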
An asterisk follows results filed as active.

For Oc1cccc(-c2csc(C(O)(c3ccccc3)C(F)(F)F)n2)c1 (stereo not drawn) the results were Six1-Eya2 blk 4, CtBP-E1A blk 4, TRPML1 agonist -0.5 and D2 PAM -12.
O=C(CCc1nc(-c2ccccn2)no1)NCc1ccc2c(c1)OCO2 was read as TRPML1 inh 3, Six1-Eya2 blk 11, CtBP-E1A blk 4, TRPML1 agonist 0.5, D2 PAM -2 and TRPV1 potentiator 0.
CCC(C)(CC(=O)O)CC(=O)Nc1cc(C(F)(F)F)cc(C(F)(F)F)c1 (stereo not drawn) was read as TRPML1 inh 1, Six1-Eya2 blk 2, CtBP-E1A blk -3, TRPML1 agonist -0.4, D2 PAM 1 and TRPV1 potentiator 3.
Screening O=C(c1ccc(CS(=O)(=O)c2ccccc2)o1)N1CCN(c2ncccn2)CC1 returned TRPML1 inh 4, Six1-Eya2 blk -5, CtBP-E1A blk 0, TRPML1 agonist -0.1 and D2 PAM -1.
`CN(CC(=O)Nc1ccc2c(c1)OCCO2)S(=O)(=O)c1ccc(Br)s1` gave TRPML1 inh 0, Six1-Eya2 blk 4, CtBP-E1A blk -9, TRPML1 agonist 2.4, D2 PAM 2 and TRPV1 potentiator -3.
`O=C(NC(=S)Nc1ccc2oc(=O)ccc2c1)c1ccccc1F` gave TRPML1 inh 6, Six1-Eya2 blk -2, CtBP-E1A blk -1, TRPML1 agonist -0.2, D2 PAM -12 and TRPV1 potentiator 3.
For Cc1ccccc1/[N+]([O-])=C/c1cccs1 the results were TRPML1 inh -3, Six1-Eya2 blk 0, TRPML1 agonist 0.1, D2 PAM -5 and TRPV1 potentiator 6.
`CCOC(=O)c1c(C)[nH]c(C(=O)OCC(=O)Nc2ccc(OC)c(Cl)c2)c1C` gave TRPML1 inh 11, Six1-Eya2 blk 2, CtBP-E1A blk -6, TRPML1 agonist 0.3, D2 PAM 5 and TRPV1 potentiator 11.
`Cc1ccccc1C(=O)NC(=S)NC1CC1` gave TRPML1 inh -4, Six1-Eya2 blk 1, CtBP-E1A blk 0, TRPML1 agonist -1.2, D2 PAM 1 and TRPV1 potentiator 6.
`COc1cc(S(=O)(=O)Nc2ccccc2C(=O)N2CCCCC2)ccc1NC(C)=O` gave TRPML1 inh -9, Six1-Eya2 blk 4, TRPML1 agonist -0.1, D2 PAM 0 and TRPV1 potentiator 0.
CNc1ncnc2c1ncn2[C@H]1CN(Cc2cccs2)C[C@@H](CO)O1 was read as Six1-Eya2 blk -10, CtBP-E1A blk 6, TRPML1 agonist -0.3 and D2 PAM -4.
Cc1ccc(C2(c3noc(CN(C)CCO)n3)CCCC2)cc1 was read as TRPML1 inh -4, Six1-Eya2 blk -1, CtBP-E1A blk 0, TRPML1 agonist -0.2, D2 PAM 1 and TRPV1 potentiator -4.
`Cc1c(Cc2c(C)n(C)n(-c3ccccc3)c2=O)c(=O)n(-c2ccccc2)n1C` gave TRPML1 inh inconclusive, Six1-Eya2 blk 6, CtBP-E1A blk 0, TRPML1 agonist 0.0, D2 PAM -2 and TRPV1 potentiator 21.
`Cc1ccc(SCc2cn3ccccc3n2)cc1` gave TRPML1 inh -2, Six1-Eya2 blk -2, CtBP-E1A blk -3, TRPML1 agonist 1.4, D2 PAM -10 and TRPV1 potentiator -4.
CCOc1cc(C(=O)OCC(=O)Nc2ccc(Cl)cn2)ccc1OCC(=O)N1CCOCC1 was read as TRPML1 inh 3, Six1-Eya2 blk 2, CtBP-E1A blk 2, TRPML1 agonist -0.5, D2 PAM -6 and TRPV1 potentiator 0.
For CCN(N=O)[C@@H](Cc1ccccc1)CN(N=O)[C@@H](Cc1ccccc1)CN(C)N=O the results were TRPML1 inh 18, Six1-Eya2 blk 12, CtBP-E1A blk 0, TRPML1 agonist -0.3, D2 PAM 2 and TRPV1 potentiator -6.
Screening Cc1nc(Cl)c(C(=O)NCCC(C)C)c(C)c1[N+](=O)[O-] returned TRPML1 inh 29, Six1-Eya2 blk 11, CtBP-E1A blk -1, TRPML1 agonist 0.4, D2 PAM -8 and TRPV1 potentiator -4.
CN(C)S(=O)(=O)Nc1ccc2c(c1)OCO2 was read as TRPML1 inh -3, Six1-Eya2 blk 7, CtBP-E1A blk 6, TRPML1 agonist -0.4, D2 PAM -9 and TRPV1 potentiator 6.
COC(=O)c1ccc(/C=N/NC(=O)c2cccc(F)c2)cc1 was read as TRPML1 inh -3, Six1-Eya2 blk -2, CtBP-E1A blk 2, TRPML1 agonist -0.3 and D2 PAM -8.
`Cc1ccc(-n2c(Cc3cccn3C)nnc2SCC(=O)N2CCc3ccccc32)cc1` gave TRPML1 inh -2, Six1-Eya2 blk -15, CtBP-E1A blk inconclusive, TRPML1 agonist 1.4, D2 PAM -17 and TRPV1 potentiator -33.
Screening CCOC(=O)N1C=CC(C)=C[C@@H]2[C@@H](N3C(=O)c4ccccc4C3=O)C(=O)N21 returned TRPML1 inh 2, Six1-Eya2 blk 7, CtBP-E1A blk 0, TRPML1 agonist 0.5, D2 PAM -10 and TRPV1 potentiator 6.
C=C(C)C1Cc2nc(N)nc(C)c2C1 (stereo not drawn) was read as TRPML1 inh 1, Six1-Eya2 blk -1, CtBP-E1A blk 10, TRPML1 agonist -0.6, D2 PAM -16 and TRPV1 potentiator -13.
Screening O=C(N/N=C/c1ccc(Br)s1)Nc1ccccc1 returned TRPML1 inh 41, Six1-Eya2 blk 0, CtBP-E1A blk -3, TRPML1 agonist 1.8, D2 PAM 9 and TRPV1 potentiator -13.
For CCC(C)(C)C1CCC2(CC1)NC(=O)N(CC(=O)NC(C)CCc1ccccc1)C2=O (stereo not drawn) the results were TRPML1 inh -1, Six1-Eya2 blk -1, CtBP-E1A blk -18, TRPML1 agonist 1.0, D2 PAM -7 and TRPV1 potentiator -2.
For CCOc1ccc(S(=O)(=O)N(CC)CC)cc1NC(=O)c1ccc(N2CCCC2=O)cc1 the results were TRPML1 inh -1, Six1-Eya2 blk -6, CtBP-E1A blk 4, TRPML1 agonist 1.8, D2 PAM -1 and TRPV1 potentiator -1.
CCOc1cccc2sc(N(CCN(CC)CC)C(=O)c3ccc(S(=O)(=O)N4CCCC4)cc3)nc12 was read as TRPML1 inh 5, Six1-Eya2 blk -7, CtBP-E1A blk 0, TRPML1 agonist -0.2, D2 PAM -41 and TRPV1 potentiator -7.
`CCc1cc(C(=O)O)c(NC(=O)c2cc(OC)c(OC)c(OC)c2)s1` gave TRPML1 inh 0, Six1-Eya2 blk -13, CtBP-E1A blk 2, TRPML1 agonist 0.3, D2 PAM 12 and TRPV1 potentiator 16.
`COc1cc(C(=O)ON=C2C3CC4CC(C3)CC2C4)cc(OC)c1OC` gave TRPML1 inh -6, Six1-Eya2 blk 1, CtBP-E1A blk 0, TRPML1 agonist 0.8, D2 PAM 18 and TRPV1 potentiator 3.
Screening CC(=O)C(=[N+]=[N-])C(=O)NCc1ccccc1 returned TRPML1 inh -6, Six1-Eya2 blk 1, CtBP-E1A blk 4, TRPML1 agonist 0.9, D2 PAM -7 and TRPV1 potentiator 6.
For O=C(Nc1ccc(Br)cc1)C1Cc2ccccc2O/C1=N\O (stereo not drawn) the results were Six1-Eya2 blk -4, CtBP-E1A blk -2, D2 PAM -3 and TRPV1 potentiator -4.

Retrieved one by one from the entries so far (3):
CCOc1cccc2sc(N(CCN(CC)CC)C(=O)c3ccc(S(=O)(=O)N4CCCC4)cc3)nc12 was read as TRPML1 inh 5, Six1-Eya2 blk -7, CtBP-E1A blk 0, TRPML1 agonist -0.2, D2 PAM -41 and TRPV1 potentiator -7.
Screening O=C(N/N=C/c1ccc(Br)s1)Nc1ccccc1 returned TRPML1 inh 41, Six1-Eya2 blk 0, CtBP-E1A blk -3, TRPML1 agonist 1.8, D2 PAM 9 and TRPV1 potentiator -13.
For CCOc1ccc(S(=O)(=O)N(CC)CC)cc1NC(=O)c1ccc(N2CCCC2=O)cc1 the results were TRPML1 inh -1, Six1-Eya2 blk -6, CtBP-E1A blk 4, TRPML1 agonist 1.8, D2 PAM -1 and TRPV1 potentiator -1.

The list goes on.
For COc1ccc(CC(O)CC2c3c(cc4c(c3OC)OCO4)CCN2C)cc1 (stereo not drawn) the results were TRPML1 inh -16, Six1-Eya2 blk 16, TRPML1 agonist 0.8, D2 PAM -22 and TRPV1 potentiator 4.
O=[N+]([O-])c1ccccc1S(=O)(=O)Nc1ccc(-c2ccc(N3CCOCC3)nn2)cc1 was read as TRPML1 inh 15, Six1-Eya2 blk -12, CtBP-E1A blk -10, TRPML1 agonist 0.1, D2 PAM -3 and TRPV1 potentiator 13.
For Cc1ccc(S(=O)(=O)Cn2nnnc2C(C(C)C)N2CCN(C(=O)c3ccco3)CC2)cc1 (stereo not drawn) the results were TRPML1 inh -11, Six1-Eya2 blk 2, CtBP-E1A blk 0, TRPML1 agonist -0.1 and D2 PAM -8.
`Fc1ccccc1N1CCN(c2ncnc3[nH]ncc23)CC1` gave TRPML1 inh 4, Six1-Eya2 blk -3, CtBP-E1A blk 0, TRPML1 agonist 1.0, D2 PAM -2 and TRPV1 potentiator 0.
`Nc1ncnc2c1ncn2[C@@H]1O[C@H](C(=O)Nc2ccc(C(=O)N3CCCCC3)cc2)[C@@H](O)[C@H]1O` gave TRPML1 inh -13, Six1-Eya2 blk 1, CtBP-E1A blk 6, TRPML1 agonist -0.5 and D2 PAM 0.
`CN(C)/C(CN1CCOCC1)=C1\N=C(c2ccccc2)OC1=O` gave TRPML1 inh 15, Six1-Eya2 blk -11, CtBP-E1A blk -23, TRPML1 agonist 0.0 and D2 PAM 0.
O=C(Cn1c(=O)cnc2ccccc21)N1CCN(S(=O)(=O)c2cccc([N+](=O)[O-])c2)CC1 was read as TRPML1 inh 4, Six1-Eya2 blk 2, CtBP-E1A blk -21, TRPML1 agonist -0.3, D2 PAM 0 and TRPV1 potentiator -2.
For O=C(NCc1ccc2c(c1)OCO2)C1CCN(C(=O)Nc2ccc(Cl)cc2)CC1 the results were TRPML1 inh -1, Six1-Eya2 blk 4, CtBP-E1A blk 7, TRPML1 agonist -0.2, D2 PAM 1 and TRPV1 potentiator -11.
For COc1cc(C(=S)N2CCOCC2)ccc1OC(=O)c1cc(OC)c(OC)c(OC)c1 the results were TRPML1 inh 47, Six1-Eya2 blk -1, CtBP-E1A blk 4, TRPML1 agonist -0.4, D2 PAM -4 and TRPV1 potentiator -17.
For CCCC(C(=O)NCc1ccccc1)N(C(=O)Cn1nnc(-c2cccs2)n1)c1ccc2c(c1)OCCO2 (stereo not drawn) the results were TRPML1 inh 12, Six1-Eya2 blk 2, CtBP-E1A blk 8, TRPML1 agonist -0.2, D2 PAM -3 and TRPV1 potentiator 2.
`O=C(Nc1ccccc1C(=O)NCC1CCCO1)c1ccccc1F` (stereo not drawn) gave TRPML1 inh -1, Six1-Eya2 blk -4, CtBP-E1A blk 8, TRPML1 agonist -0.4, D2 PAM 1 and TRPV1 potentiator -9.
`Cc1cccc(NC(=S)N/N=C/c2cccc([N+](=O)[O-])c2)c1` gave TRPML1 inh 2, Six1-Eya2 blk -4, CtBP-E1A blk -1, TRPML1 agonist -1.0, D2 PAM -7 and TRPV1 potentiator 8.

Hits appear at their usual frequency. Share with any hit: about 0.95%.
